KCNQ2 pot: potentiators of rat KCNQ2 potassium channel. AID 2239, 2010. Potassium voltage-gated channel subfamily KQT member 2 (Rattus norvegicus), O88943. CHO-K1 KCNQ2, FluxOR thallium flux fluorescence; stronger effect = higher value. B-score at 10 µM. 310,000 compounds, 0.54% hits;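 active = fluorescence ratio B-score at least 3 SD of library B-scores, with initial fluorescence B-score within 3 SD, cut at about 5.3 in these data; same plate scores as AID 2156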;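 note: B-score of peak minus minimum over baseline fluorescence ratio after K+ and Tl+ stimulus; positive B-score means potentiation of KCNQ2 with more thallium influx and brighter signal; only the inactives scoring about 0 or higher are listed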
Target sequence (O88943 whole entry, looked up): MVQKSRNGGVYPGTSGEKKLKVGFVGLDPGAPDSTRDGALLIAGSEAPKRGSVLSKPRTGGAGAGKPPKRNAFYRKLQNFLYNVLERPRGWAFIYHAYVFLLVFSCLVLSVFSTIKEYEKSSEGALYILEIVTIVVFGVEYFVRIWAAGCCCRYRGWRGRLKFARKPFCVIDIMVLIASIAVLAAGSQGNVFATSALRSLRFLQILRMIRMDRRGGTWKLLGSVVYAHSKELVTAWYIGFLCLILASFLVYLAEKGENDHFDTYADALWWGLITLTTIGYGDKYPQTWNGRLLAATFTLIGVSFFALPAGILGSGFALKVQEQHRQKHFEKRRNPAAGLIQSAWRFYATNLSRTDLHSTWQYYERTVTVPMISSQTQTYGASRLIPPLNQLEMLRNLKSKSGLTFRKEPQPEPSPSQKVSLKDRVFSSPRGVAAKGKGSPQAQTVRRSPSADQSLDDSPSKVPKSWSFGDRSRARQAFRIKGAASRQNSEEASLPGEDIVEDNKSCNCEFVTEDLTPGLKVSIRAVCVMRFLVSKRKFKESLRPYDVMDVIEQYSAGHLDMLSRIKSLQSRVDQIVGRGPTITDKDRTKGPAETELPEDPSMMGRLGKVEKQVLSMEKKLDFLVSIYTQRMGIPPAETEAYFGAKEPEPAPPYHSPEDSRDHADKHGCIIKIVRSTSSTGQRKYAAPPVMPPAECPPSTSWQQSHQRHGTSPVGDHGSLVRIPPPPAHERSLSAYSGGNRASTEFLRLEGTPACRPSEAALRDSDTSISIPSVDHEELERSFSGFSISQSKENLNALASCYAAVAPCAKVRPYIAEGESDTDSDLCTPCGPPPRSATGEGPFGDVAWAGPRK
KCNQ2 pot baseline: further read-out of KCNQ2 pot, marked with its call; B-score; compound at 10 µM; measured here: initial fluorescence intensity artifact check;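 brightness before thallium and not channel activity; 0 = typical well and far values either way flag optical interference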
* = called active by the depositor.

KCNQ2 pot,KCNQ2 pot baseline,smiles
0.21,-1.2,COc1ccc(C)cc1S(=O)(=O)Nc1ccc(F)cc1
1.5,-0.36,COc1cc(C(=S)N2CCOCC2)cc(OC)c1OC(=O)Cc1ccc(F)cc1
0.18,0.78,O=c1c2c(-c3ccc([N+](=O)[O-])cc3)csc2nc2n1CCC2
0.85,1.8,Cc1cccc(NC(=O)COC(=O)Cc2c[nH]c3ccccc23)c1C
0.84,0.86,Cc1ccc(N=Cc2ccc[nH]2)c(O)c1
0.01,-1.6,CN(Cc1ccccc1Cl)C(=O)c1cnccc1C(F)(F)F
1.1,-0.49,CC(C)CCSc1nc2[nH]ncc2c(=O)[nH]1
0.11,0,CC(=O)c1cccc(S(=O)(=O)NC2CCSc3ccccc32)c1 (stereo unspecified)
0.13,-3.2,CC(C)C(c1nnnn1C1CCCCC1)N1CCc2ccccc2C1 (stereo unspecified)
0.06,1.3,O=C(O)CC(NC(=O)/C(=C/c1ccccc1)NC(=O)c1ccccc1)c1ccccc1 (stereo unspecified)
0.53,1,COC(=O)/C(=C/c1ccc(OC)cc1)NC(=O)c1ccco1
0.88,-0.64,COc1ccc(NS(=O)(=O)c2cccc(C(=O)NC3CCN(Cc4ccccc4)CC3)c2)cc1
0.05,1.4,COC(=O)/C=C/c1ccc2c(c1)S(=O)(=O)N(Cc1ccc(OC)cc1)[C@H]2CC(=O)OC
0.35,0.07,CCC(=O)Nc1ccc(NC(=O)c2cc3ccccc3o2)c(OC)c1
0.07,0.68,CCC1CCCCN1CCCNC(=O)Cn1cc2c(n1)-c1c(oc(C(=O)N3CCCC3)c1C)CC2 (stereo unspecified)
0.27,-0.04,COc1ccc(C(=O)Nc2ncccc2C)cc1S(=O)(=O)N1CCOCC1
0.33,0.12,CCOC(=O)c1cc(C(=O)NC(C)c2ccccc2)c(C)[nH]c1=O (stereo unspecified)
0.63,-0.84,O=C(NCCNC(=O)c1cc(OCC(F)(F)F)ccc1OCC(F)(F)F)Nc1cccc(C(F)(F)F)c1
2.4,-0.74,O=C(CSc1nnc(-c2cccnc2)o1)N1CCCCC1
2.1,-2.1,COc1ccc(NC(=O)COc2ccc(CNCCCN3CCOCC3)cc2OC)cc1
0.29,-3,COc1ccc(-c2cc(-c3nnc(COC(=O)c4ccncc4)o3)c3ccccc3n2)cc1OC
0.63,-1.1,CSc1cccc(NC(=O)CNC(=O)c2ccc3c(c2)OCO3)c1
8*,-1.5*,O=C(N1CCCCC1)N1CCN(C(=O)N2CCCCC2)CC1
1.5,-1.7,O=C(Nc1c2c(nn1-c1cccc(Cl)c1)CS(=O)(=O)C2)c1cccs1
0.45,-0.04,CCOC(=O)N1CCN(c2c(Nc3ccc4c(c3)OCCO4)c(=O)c2=O)CC1
0.88,-1,O=C(c1ccc(CS(=O)(=O)c2ccc(Br)cc2)o1)N1CCN(c2ncccn2)CC1
0.61,0.18,Cc1ccc(N2CCN(C3=NC(=O)/C(=C\c4cn[nH]c4-c4ccccc4)S3)CC2)cc1
0.52,1.6,NC(=O)CCN1CCC(c2nc3ccccc3s2)CC1
1.5,-0.27,COc1cc(NC(=O)c2ccc(CNc3c(N4CCCC4)c(=O)c3=O)cc2)cc(OC)c1OC
0.92,-0.76,COc1ccc(Nc2ncc3c(n2)CC(c2ccc(OC)cc2)CC3=O)cc1 (stereo unspecified)
0.1,0.11,CC(Oc1ccc(F)cc1Br)c1nc2ccccc2c(=O)[nH]1 (stereo unspecified)
0.01,0.68,CCOc1ccc(NC(=O)Nc2ccc3c(c2)nc(C)n3C)cc1
0.1,-2.5,C#CCn1cc[n+](CC(=O)N(C)C)c1
0.1,1.8,COc1cc(/C=C/c2cc(C(=O)O)c3ccccc3n2)ccc1OC(F)F
6.5*,-0.32*,O=C(CC1CCCCC1)Nc1ccccc1-c1ccccc1
0.01,-0.41,CCN(CC)CCCOC(=O)C(c1ccccc1)c1ccccc1
5.7*,0.35*,Cc1ccc(C(=O)NC(=S)N(C)C2CCCCC2)cc1
1.5,-0.13,COc1ccc(NC(=S)NCc2ccc(Cl)cc2)c(OC)c1
1,1.8,CCOC(=O)c1cc(-c2ccc(/C=N\n3cnnc3)o2)ccc1Cl
0.35,-0.35,CN(C)CCCN(C(=O)/C=C/c1cccs1)c1nc2ccc(F)cc2s1
1.4,0.03,O=C(O)c1cccc(CN2C(=O)SC(Nc3ccccc3)C2=O)c1 (stereo unspecified)
0.42,1.6,CCOc1cc(CN2CCN(CCOCCO)CC2)ccc1OC
1.1,-1.3,Cc1cc(NCc2ccc3c(c2)OCO3)n2nc(C)nc2n1
0.38,0.13,CCCOc1ccc(C(=O)Nn2c(C)nc3ccccc3c2=O)cc1
0.6,1.3,CC(=O)Nc1ccc(NC(=O)C(C)OC(=O)CCC2CCCCC2)cc1 (stereo unspecified)
0.4,1.3,O=C(CCSCc1cccc(Cl)c1)NCCc1ccccc1
1.3,-1.4,CCN(CC)C(=O)c1ccccc1NC(=O)CN1C(=O)c2ccccc2S1(=O)=O
1.4,0.12,CC(NC(=O)C(C)N1CCN(Cc2ccccc2)CC1)c1ccccc1 (stereo unspecified)
2.2,0.02,COc1c(C(=O)Nc2nnc(C3CC3)s2)csc1Cl
0.51,-0.11,COc1ccc(C#Cc2c(-c3ccc(OC)cc3)oc3ccc(-c4ccc5c(c4)OCO5)cc23)cc1

In the list so far, these have a CF3 group:
KCNQ2 pot,KCNQ2 pot baseline,smiles
0.01,-1.6,CN(Cc1ccccc1Cl)C(=O)c1cnccc1C(F)(F)F
0.63,-0.84,O=C(NCCNC(=O)c1cc(OCC(F)(F)F)ccc1OCC(F)(F)F)Nc1cccc(C(F)(F)F)c1

Continuation.
KCNQ2 pot,KCNQ2 pot baseline,smiles
0.62,-0.08,CCOc1ccc(C(=O)N2CCCCCC2)cc1
1.8,0.01,c1c2c(cc3sc(N4CCOCC4)nc13)OCO2
1.7,-0.86,COc1ccc(C(=O)COC(=O)CCNS(=O)(=O)c2ccccc2)cc1Br
0.44,0.03,Cc1ccc(C(=O)NN2C(=O)C3C4c5ccccc5C(c5ccccc54)C3C2=O)cc1 (stereo unspecified)
0.61,2.2,Cc1ccnc2nc(C(=O)OCC(=O)N3CCc4ccccc43)nn12
0.05,0.99,O=c1c2ccccc2ncn1C1CCCCC1
0.73,0.61,COc1cc(NC(=O)C2CCCN2S(=O)(=O)c2ccc3c(c2)CC(C)N3C(C)=O)cc(OC)c1 (stereo unspecified)
1.3,0.75,CN1C(=O)/C(=C/c2ccccc2OCc2ccccc2F)NC1=S
0.88,-0.39,CON(C)c1nc(OCC#N)nc(N(C)C)n1
0.92,-0.1,CC(C)(C)c1ccc(NC(=O)COC(=O)CCc2nc3ccccc3c(=O)[nH]2)cc1
0.82,-0.33,Cc1nc2c3ccccc3nc(NNC(=O)CCC(=O)NCCC(C)C)n2n1
1.3,1.1,CN1CCN(NC(=O)c2cn(-c3ccccc3)nc2-c2cccs2)CC1
1.5,0.13,CC(NC(=O)Nc1ccccc1C(F)(F)F)C1CCCO1 (stereo unspecified)
0.14,-1.7,O=C(Nc1c2c(nn1-c1ccc([N+](=O)[O-])cc1)CS(=O)(=O)C2)c1ccco1
1.8,-0.73,Nc1cc(C(F)(F)F)ccc1OCC1CCCO1 (stereo unspecified)
1.2,1.2,CC(=O)NC1(C(F)(F)F)C(=O)Nc2c1c(=O)[nH]c(=O)n2CCc1ccccc1 (stereo unspecified)
0.22,-0.17,C(=N\N1CCN(C2c3ccccc3-c3ccccc32)CC1)/c1cccnc1
0.87,-0.63,O=C(/C=C/c1ccc(O)c(O)c1)O[C@@H]1C[C@](O)(C(=O)O)C[C@@H](O)[C@H]1O
1.2,0.98,CCOC(=O)C1=C(N2CCCCC2)c2cc3c(n2C1=O)CCCC3
0.19,0.28,CC(C)(C)C1CCc2c(sc(NC(=O)c3ccncc3)c2C(N)=O)C1 (stereo unspecified)
1.1,-0.01,Cc1ccc(Oc2ccc(C=O)cn2)cc1
1.4,0.7,CCOC(=O)c1sc(-c2ccc(C(F)(F)F)cc2)nc1O
1.1,1.7,COCCCNC(=O)CCc1ccc(S(=O)(=O)Nc2ccc(C)cc2)cc1
0.25,0.13,Cc1nn(CC2CC2)c(=O)n1-c1ccccc1F
0.38,-1.3,O=C(NCc1cccnc1)c1cccnc1Sc1ccc(Cl)cc1
0.4,-2.2,O=C(CSCc1cc(=O)n2ccsc2n1)Nc1ccccc1
0.61,0,COc1cc(C(=O)NCc2nnc(SCC(=O)NCCc3ccccc3)o2)cc(OC)c1OC
0.54,-0.06,O=C(O)CCCn1cc(NC(=O)COc2cccc(Cl)c2)cn1
0.03,0.39,CC1=C(C#N)C(c2cn(-c3ccccc3)nc2-c2cccs2)C(C#N)=C(C)N1
0.85,0.38,COCCn1c(=O)[nH]c2cc(C(=O)Nc3cc(C)cc(C)c3)ccc2c1=O
0.08,-1.8,CC1(C)Cc2c(sc(NC(=O)c3ccco3)c2C#N)C(C)(C)N1
1.6,1.3,CCOc1ccccc1NC(=O)CCc1nnc2ccc(N3CCC(C)CC3)nn12
0.03,-0.05,Cc1c(C(=O)Nc2ccc(Nc3ccccc3)cc2)cccc1[N+](=O)[O-]
0.02,-2.2,O=C(CN1C(=O)NC(Cc2c[nH]c3ccccc23)C1=O)Nc1cccc(S(=O)(=O)N2CCCCCC2)c1 (stereo unspecified)
0.2,-0.68,Cc1ccc(S(=O)(=O)CCC(=O)Nc2ccccc2C)cc1
0.3,-0.56,FCCCOc1ccc(/C=N/OCc2ccc(Cl)cc2)cc1
0.02,-0.05,O=C(N/N=C/c1ccc(F)cc1)c1ccc(Br)cc1
2.5,0.33,O=C(Nc1nnc(C2=COCCO2)o1)c1ccc(Cc2ccccc2)cc1
1.2,-0.85,OC(COc1ccc(OCC(O)CN2CCCCCC2)cc1)CN1CCCCCC1 (stereo unspecified)
3,-0.79,CC1CCN(S(=O)(=O)c2ccc3c(c2)CCN3C(=O)CCC(=O)O)CC1
0.94,-0.04,Cc1cc([N+](=O)[O-])nn1CCCC(=O)Nc1sc2c(c1C(N)=O)CCCC2
0.45,0.79,CN(c1ccc(C(=O)N2CCCCC2)cc1)S(C)(=O)=O
11*,1.4*,CCOc1ccc2nc(/N=C/c3nc(-c4ccccc4)oc3O)sc2c1
0.29,0.87,C=CCn1c(SCCOc2ccccc2)nnc1C(C)NC(=O)c1ccccc1 (stereo unspecified)
0.18,-0.83,O=C(NCc1ccc(F)cc1)c1ccc(CS(=O)(=O)c2ccc(Br)cc2)o1
0.15,1.8,O=C(Nc1ccc(F)cc1)Nc1nnc(-c2ccccc2)o1
1.4,1.7,O=C(NC(=S)NC1CCSC1=O)c1ccccc1Cl (stereo unspecified)
1.3,-2.5,COc1ccccc1CNC(=O)C(=O)NCC1OCCN1S(=O)(=O)c1cccs1 (stereo unspecified)
0.41,0.46,CCOc1ccc(NS(=O)(=O)c2cc(NC(=O)CCC(=O)c3cccs3)ccc2Cl)cc1
0.04,-0.31,CC(C)CC(=O)NC(=S)Nc1ccc(S(=O)(=O)N2CCN(C)CC2)cc1

Next part.
KCNQ2 pot,KCNQ2 pot baseline,smiles
0.44,-3,CCN(CC(=O)NC1CCCC1)S(=O)(=O)c1ccc(F)cc1
0.07,-0.19,O=C(Nc1c2c(nn1-c1ccccc1)CS(=O)C2)c1ccco1 (stereo unspecified)
0.1,-1,Cc1ccc(C(=O)O/N=C/c2ccc3c(c2)OCO3)cc1
0.93,-0.45,Cc1cccc(N(C)S(=O)(=O)c2cc3c(cc2C)n(C)c(=O)c(=O)n3C)c1
0.17,1.5,COc1ccc(NC(=S)NCCCN2CCN(C3CCCCC3)CC2)cc1
1.5,-0.22,CCN(CC)c1ccc(C2C(C(C)=O)C(=O)CC(C)(O)C2C(C)=O)cc1 (stereo unspecified)
0.61,-0.19,CCC(=O)N1CCc2cc(S(=O)(=O)CCC(=O)NCCc3ccc(OC)c(OC)c3)ccc21
0.69,-0.16,O=c1ccn(-c2cccc(C(F)(F)F)c2)nc1-c1ccn(-c2ccccc2)n1
0.95,1.1,CCCCC(=O)Nc1ncc([N+](=O)[O-])s1
0.53,0.49,O=C(NCC1CCCO1)C(c1ccc(F)cc1)N(Cc1ccc2c(c1)OCO2)C(=O)c1ccc(CN2CCOCC2)o1 (stereo unspecified)
0.84,0.73,COc1cccc(CNC(=O)CCC2CCCN(C(=O)CCn3cncn3)C2)c1 (stereo unspecified)
0.28,0.8,CC(=O)N1c2ccc(S(=O)(=O)N3CCC(C(=O)NCc4ccc(Cl)cc4)CC3)cc2CC1C (stereo unspecified)
0.05,1.1,Cc1ccc(S(=O)(=O)Oc2ccc(/C=C3\C(=N)N4N=C(S(C)(=O)=O)SC4=NC3=O)cc2)cc1

Compounds from the list above containing a Cl atom:
KCNQ2 pot,KCNQ2 pot baseline,smiles
0.01,-1.6,CN(Cc1ccccc1Cl)C(=O)c1cnccc1C(F)(F)F
1.5,-1.7,O=C(Nc1c2c(nn1-c1cccc(Cl)c1)CS(=O)(=O)C2)c1cccs1
1.5,-0.13,COc1ccc(NC(=S)NCc2ccc(Cl)cc2)c(OC)c1
1,1.8,CCOC(=O)c1cc(-c2ccc(/C=N\n3cnnc3)o2)ccc1Cl
0.4,1.3,O=C(CCSCc1cccc(Cl)c1)NCCc1ccccc1
2.2,0.02,COc1c(C(=O)Nc2nnc(C3CC3)s2)csc1Cl
0.38,-1.3,O=C(NCc1cccnc1)c1cccnc1Sc1ccc(Cl)cc1
0.54,-0.06,O=C(O)CCCn1cc(NC(=O)COc2cccc(Cl)c2)cn1
0.3,-0.56,FCCCOc1ccc(/C=N/OCc2ccc(Cl)cc2)cc1
1.4,1.7,O=C(NC(=S)NC1CCSC1=O)c1ccccc1Cl (stereo unspecified)
0.41,0.46,CCOc1ccc(NS(=O)(=O)c2cc(NC(=O)CCC(=O)c3cccs3)ccc2Cl)cc1
0.28,0.8,CC(=O)N1c2ccc(S(=O)(=O)N3CCC(C(=O)NCc4ccc(Cl)cc4)CC3)cc2CC1C (stereo unspecified)

Screens (PubChem BioAssay)

An excerpt. The share of hits here may be higher or lower than overall.
